Assay outcomes (PubChem)
PINK1 modulator = PINK1 expression modulation; PINK1 immunofluorescence, high-content cytometry, 24 h; AID 624263; Potency, µM (highest dose often 76.6 µM), inactives show top-dose activation (PINK1 increase), usual class: activators; actives 0.2% (n = 410,000); active = well fitted activation curve with a large enough effect; inconclusive = small, poorly fitted or top-dose-only effect; inactive = flat fitted curve, though single readings scatter; cell line not stated here;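 also: potency is read from the fitted curve at half-maximal effect; % of control where 0% means no effect; nearly all actives have a fitted effect of over 65% in size; a mitochondrial uncoupler was the plate control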
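A stable cell line was treated with compounds at 5 concentrations for 24 hours, with CCCP as control. PINK1 levels and mitochondrial localization were measured by immunofluorescence with mitochondrial, cell and nuclear markers after fixation, read by laser-scanning cytometry.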
TRPML1 agonist = agonists of human TRPML1 channel | Q9GZU1 | TRPML1-expressing cells, Ca2+ dye fluorescence, FDSS; host cell line not named in the record; reference of the full effect not given here | activation, % (concentration not given with the values) | actives 0.12% (n = 410,000) | AID 624414; in the data active = activation above about 50%; inconclusive = about 30% to 50%; inactive = below about 30%; also: 0% is about no effect; the text of the record puts the active cut at 80%
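In this qHTS format, compounds were pin-transferred onto Ca8-dye-loaded TRPML1-DL cells induced with Tet overnight, and intracellular Ca2+ fluorescence was recorded kinetically for 110 s after a 10 s baseline. A subsequent 4uM final 54-4 (EC80) addition followed by a second 110 s read served as the antagonist phase.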
D2 potentiator = human D2 receptor positive allosteric modulation; DiscoveRx D2 beta-arrestin cells, luminescence, 90 min; 100% = 57 uM dopamine signal; actives 0.23% (n = 360,000); AID 624464; potentiation, % (no concentration beside the values); active = potentiation of 50% or more; inconclusive = 30% to 50%; inactive = 30% or less;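 also: compound concentration not given in the record; tested on top of an EC20 dose of dopamine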
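PathHunter D2 cells, attached overnight at 37 deg C, received compound in DMSO plus dopamine at EC20 (50 nM final) for 90 min at 37 deg C. Beta-arrestin recruitment was read as luminescence after 1 h with detection reagent at ambient temperature.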
CtBP-E1A inh = inhibitors of CtBP/E1A interaction; activity change, % (no concentration beside the values); actives 0.49% (n = 340,000); AlphaScreen GST-E1A/His-CtBP binding, 1536-well; active compounds read low; control for the full effect not named in the record; AID 651724; in the data active means activity change below about -65%; inconclusive means about -30% to -65%; inactive means above about -30%; also: % is scaled to controls: 0 for no effect and ±100 for the full control effect
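Homogeneous bead-based format: GST-tagged E1A captured on glutathione donor beads, His-tagged CtBP on nickel acceptor beads; compounds precede bead addition by 2 h at 37 °C.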
Six1-Eya2 blk = inhibitors of human Six1/Eya2 interaction. AlphaScreen GST-Six1/His-Eya2 binding, biochemical; active compounds read low; control for the full effect not named in the record. actives 0.56% (n = 360,000). AID 651725. activity change, % (test concentration not listed). Q15475+O00167; in the data active = activity change below about -65%; inconclusive = about -30% to -65%; inactive = above about -30%; also: % is scaled to controls: 0 for no effect and ±100 for the full control effect
Target sequence (O00167 whole entry, looked up): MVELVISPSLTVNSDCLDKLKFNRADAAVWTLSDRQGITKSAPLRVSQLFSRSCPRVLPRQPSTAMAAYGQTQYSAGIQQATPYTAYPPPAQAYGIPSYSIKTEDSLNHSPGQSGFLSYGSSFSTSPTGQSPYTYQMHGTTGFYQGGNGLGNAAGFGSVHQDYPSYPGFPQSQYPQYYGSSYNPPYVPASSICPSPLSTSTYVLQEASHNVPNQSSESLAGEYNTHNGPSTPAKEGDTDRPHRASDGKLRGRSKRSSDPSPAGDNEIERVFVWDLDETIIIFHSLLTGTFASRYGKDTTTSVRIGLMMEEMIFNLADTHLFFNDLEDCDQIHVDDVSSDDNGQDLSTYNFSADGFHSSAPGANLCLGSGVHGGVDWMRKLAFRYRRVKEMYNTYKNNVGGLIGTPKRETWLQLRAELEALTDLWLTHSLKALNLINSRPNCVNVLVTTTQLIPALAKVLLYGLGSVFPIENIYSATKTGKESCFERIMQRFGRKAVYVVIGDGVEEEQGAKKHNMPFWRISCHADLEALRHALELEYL
Target sequence (Q15475 whole entry, looked up): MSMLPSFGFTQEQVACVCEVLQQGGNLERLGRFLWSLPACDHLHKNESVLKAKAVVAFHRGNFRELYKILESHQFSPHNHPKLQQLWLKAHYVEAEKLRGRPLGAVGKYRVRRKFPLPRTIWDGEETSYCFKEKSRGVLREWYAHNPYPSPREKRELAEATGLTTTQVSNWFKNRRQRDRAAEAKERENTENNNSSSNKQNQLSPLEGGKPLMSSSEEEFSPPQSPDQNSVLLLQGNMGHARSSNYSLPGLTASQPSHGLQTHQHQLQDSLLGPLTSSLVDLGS
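Compounds are tested against tagged Six1 and Eya2 proteins bridged by glutathione donor and nickel acceptor beads; after a one-hour incubation at 37 °C without light, AlphaScreen emission is recorded.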
D2 agonist = human D2 receptor agonism in beta-arrestin assay; P14416; actives 0.084% (n = 360,000); activation, % (test concentration not listed); DiscoveRx PathHunter D2 beta-arrestin, luminescence, 90 min; 100% = 57 uM dopamine signal; in the data active = activation above about 40%; inconclusive = about 15% to 40%; inactive = below about 15%; also: compound concentration not given in the record; the text of the record calls up to 30% inactive
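DiscoveRx PathHunter D2 beta-arrestin cells (2,100/well) attached overnight, then compound-stimulated 90 min at 37 C in HBSS/10 mM HEPES/0.1% Tween-20 buffer; beta-galactosidase complementation read by luminescence after 1 h at ambient temperature. Dopamine 57 uM final (EC100) as control.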
* marks the source's active call; other numbers are inactive results; ? = inconclusive; . = no result given; [ ] = dose if it differs, or a comment.

Molecule	Six1-Eya2 blk	PINK1 modulator	D2 agonist	CtBP-E1A inh	TRPML1 agonist	D2 potentiator
COc1cc2c(cc1NC(=O)COC(=O)C1CC(=O)N(Cc3ccco3)C1)oc1ccccc12 (stereo not drawn)	-1	1.0%	2.0	1	1.0	11
COc1cccc(CN2CC(C(=O)N(C)Cc3ccnc4ccccc34)CCC2=O)c1 (stereo not drawn)	-1	1.4%	10	7	0.6	-4
Cc1ccc(Cl)cc1N1CCN(S(=O)(=O)c2cn(C)cn2)CC1	-1	-0.2%	-1.8	-3	-0.8	-8
Cc1ccc(CNC(=O)CCSCc2cccc(F)c2)cc1	5	0.5%	-2.8	3	.	-11
O=C(OCC(=O)N1CCN(C(=O)c2ccco2)CC1)c1ccc(Cl)c(Cl)c1	5	0.6%	0.3	-15	-0.9	-3
COc1ccc(-c2cc(-c3ccccc3)c(C#N)c(S(C)(=O)=O)n2)cc1	5	-1.8%	0.0	1	-0.3	-9
CCCCNc1nc(N)ncc1[N+](=O)[O-]	1	-1.1%	4.6	.	3.2	2
COc1cccc(COC(=O)C2CCN(S(=O)(=O)c3ccc(C)cc3)CC2)c1OC	5	0.4%	3.4	2	0.6	5
CC(OC(=O)Cn1cnc2c1c(=O)n(C)c(=O)n2C)C(=O)N(C)c1ccccc1 (stereo not drawn)	6	-2.3%	-0.6	1	1.1	-67
COC(=O)C1CC(c2c(OC)cc(OC)cc2OC)=NO1 (stereo not drawn)	-2	0.4%	-0.4	1	-0.6	-5
COc1cc(NC(=O)CSc2nncn2C)c(C)cc1[N+](=O)[O-]	0	2.4%	1.7	-11	-0.3	-5
O=C(O)CSc1ccc(NC(=O)Nc2ccccc2F)cc1	1	1.5%	3.4	.	3.2	-20
CCOc1ccc(-n2c(C)cc(C(=O)NS(=O)(=O)c3ccc(C)cc3)c2C)cc1	-9	-2.2%	0.7	-2	-0.5	-7
CCOc1ccc(CCNC(=O)c2cccc(S(=O)(=O)N3CCCC3)c2)cc1OCC	-9	3.9%	-4.9	5	-0.7	4
O=S(=O)(Nc1ccc(N2CCCCC2)cc1)c1ccc(F)cc1F	-15	6.7%	-4.2	-27	-0.1	-11
N#Cc1c(/N=C/c2ccccc2)oc(-c2ccccc2)c1-c1ccccc1	0	0.5%[38.3 µM]	-1.9	-1	0.3	-12
COc1cc(C2Nc3ccccc3C(=O)N2c2ccccc2)c(Br)cc1OCC(=O)O (stereo not drawn)	4	2.7%	0.4	-12	-0.1	5
CCCCc1c(O)cc(C)[nH]c1=O	-4	0.6%	-1.6	1	-0.1	-2
C[C@@H]1C(=O)N(c2ccccc2)[C@@H]1c1ccncc1	0	-0.5%	-0.3	1	-0.6	.
COC(=O)CNC(c1ccccc1)c1cc(Br)ccc1NS(=O)(=O)c1ccc(C)cc1 (stereo not drawn)	-13	1.3%	-5.2	1	0.0	-3
CCOC(=O)N1CCN(C(=O)CNC(=O)Cc2ccc(Cl)cc2)CC1	-2	0.4%	-4.9	2	1.3	-2
COc1ccc(/C=N/NC(=O)c2cccc(C(=O)N/N=C/c3ccc(OC)c(OC)c3)n2)cc1OC	2	-1.5%	-2.4	-5	3.6	-4
Cc1ccc(OCCOC(=O)CN2C(=O)NC3(CCCC3)C2=O)cc1	28	0.2%	-5.1	-11	0.4	-6
C[C@H](CO)N1C[C@H](C)[C@@H](CN(C)Cc2ccncc2)Oc2c(NC(=O)C3CCCCC3)cccc2C1=O	-25	-0.2%	-0.8	-20	-0.6	-8
COc1ccc(/C=N/NC(=O)c2ccc(CSc3nc(C)cc(C)n3)cc2)cc1O	-17	-2.1%	0.8	-15	4.2	-7
CCCc1cc(C(=O)Nc2cccnc2)no1	-4	-1.0%	0.6	-4	-0.2	-10
CCc1[nH]c(=O)c(C#N)c2c1CCCC2	7	0.5%	-4.0	4	-0.4	-14
Cc1ccc(OCCCCCN2CCOCC2)cc1	-1	3.8%	-1.7	6	-0.2	-12
Cc1ccc(CNC(=S)NC2CCC(C(C)(C)C)CC2)cc1 (stereo not drawn)	-5	3.0%	-6.2	-1	0.8	-6
COc1ccc(/C(C)=N/NC(=O)CNC(=O)c2cccnc2)c(OC)c1	8	5.1%	-7.3	.	1.0	-6
COCCN(C(=S)Nc1ccccc1C)C(C)c1ccco1 (stereo not drawn)	-1	1.7%	-1.3	2	0.5	0
O=C(CCc1ccccc1)NNC(=O)CCc1ccccc1	0	0.1%	0.8	.	0.0	-4

Looked up by structure from above (4):
Molecule	Six1-Eya2 blk	PINK1 modulator	D2 agonist	CtBP-E1A inh	TRPML1 agonist	D2 potentiator
COc1ccc(/C(C)=N/NC(=O)CNC(=O)c2cccnc2)c(OC)c1	8	5.1%	-7.3	.	1.0	-6
Cc1ccc(OCCCCCN2CCOCC2)cc1	-1	3.8%	-1.7	6	-0.2	-12
O=C(CCc1ccccc1)NNC(=O)CCc1ccccc1	0	0.1%	0.8	.	0.0	-4
COCCN(C(=S)Nc1ccccc1C)C(C)c1ccco1 (stereo not drawn)	-1	1.7%	-1.3	2	0.5	0

The results go on:
Molecule	Six1-Eya2 blk	PINK1 modulator	D2 agonist	CtBP-E1A inh	TRPML1 agonist	D2 potentiator
Oc1ccccc1/C=N/Nc1nn[nH]n1	-91*	1.1%	-0.5	.	-0.4	-5
CCc1noc(C)c1C(=O)OCC(=O)c1ccc(OC)c(OC)c1	1	2.7%	2.2	-3	3.5	-1
O=C(Nc1ccccc1)Oc1cccc(Br)c1	-2	1.2%	-2.0	.	-0.5	-17
COc1ccccc1CC(Cc1nc2ccccc2[nH]1)c1nc2ccccc2[nH]1 (stereo not drawn)	-3	-1.5%	-0.5	-2	5.5	-21
O=C1CC(c2ccccc2)CC(O)=C1C=NCCCO (stereo not drawn)	0	-0.3%	-1.4	13	-0.4	9
Brc1ccc([C@H]2CN3CCSC3=N2)cc1	1	4.9%	-8.4	-3	-0.5	-16
CC(C)=NOc1nc(N(C)C)nc(N2CCOCC2)n1	-7	-0.6%	-0.6	2	-0.1	-8
COc1cccc(N/N=C(\C#N)S(=O)(=O)C(C)(C)C)c1	28	2.0%	0.1	-3	0.1	-8
CCN(C(=O)CSc1cc(C)c2ccccc2n1)C1CCS(=O)(=O)C1 (stereo not drawn)	3	-1.1%	-1.7	22	-0.6	-3
NC(=O)C1CNc2ccccc2O1 (stereo not drawn)	10	-1.5%	-2.1	0	0.7	-19
Nc1ccnn1-c1ccccc1	3	0.8%	-0.3	.	0.9	12
CCOC(=O)c1c(NC(=O)COC(=O)c2ccccn2)sc2c1CCC2	0	-0.4%	0.2	-9	3.9	-3
COc1ccccc1N1C(=NC(=O)CCC2CCCC2)SC2CS(=O)(=O)CC21 (stereo not drawn)	2	0.4%	1.8	2	1.5	-2
COc1ccc(N2CCN(C(=O)CCCNC(=O)Cn3cnc4sc(C)c(C)c4c3=O)CC2)cc1	7	4.6%	-4.1	-7	-0.7	-8
CCN1C(=O)CSc2ccc(C(=O)NCc3ccccc3)cc21	-1	0.1%	1.9	1	-1.6	-31
C[C@@H]1CN([C@@H](C)CO)S(=O)(=O)c2ccc(Br)cc2O[C@@H]1CN(C)Cc1cccnc1	-2	-0.5%	0.7	-8	.	.
CC(C)(C)c1ccc(C(=O)NN=C2CCCC2)cc1	8	-0.1%	-4.5	9	0.5	-12
CCOC(=O)c1sc(NC(=O)c2ccco2)c(C#N)c1C	-21	4.6%	-2.9	2	0.4	4
Cc1nc(SCC(=O)Nc2ccccc2C(F)(F)F)c2c(=O)n(C)c(=O)n(C)c2n1	0	16%[38.3 µM]	-1.1	56	-0.3	7
O=C(CCc1ccccc1O)NC1CCCc2ccccc21 (stereo not drawn)	-1	0.6%	-2.9	5	0.2	-14
CCS(=O)(=O)N1Cc2ccccc2CC1C(=O)N(C)CC(=O)Nc1ccc(OC)cc1 (stereo not drawn)	1	0.3%	-1.9	.	-0.6	15
Cn1ncc([N+](=O)[O-])c1C(=O)NC1CCCCC1	-17	-0.1%	4.1	.	-0.8	-9
COc1cc(NC(=O)CN(C)S(=O)(=O)c2ccc3c(c2)CC(C)N3C(C)=O)cc(OC)c1 (stereo not drawn)	1	0.4%	3.5	.	-0.1	0
COc1cccc2c1C1(O)C2CCCCCCCCCC12OCCCO2 (stereo not drawn)	6	14%	-1.4	0	0.0	-11
COc1cc(OC)c(OC)cc1/C=C/C(=O)c1ccc(NS(=O)(=O)c2ccc(C)cc2)cc1	-1	-1.7%	?	1	8.5	?
CCC(CC)c1nc(C#N)c(NCc2ccccc2)o1	-6	5.4%	-0.6	-14	2.1	-21
COc1ccc(NC(=S)N2CCN(C/C=C/c3ccccc3)CC2)cc1OC	-14	1.6%	-1.4	-7	-0.8	-14
COc1cc(CO)ccc1Oc1nc2ccccc2n2cnnc12	-6	0.8%	-4.9	.	-0.3	-17
CC(C)Oc1ccc(Cn2c(-c3ccco3)n[nH]c2=S)cc1	-3	-0.3%	0.6	-4	1.9	7
CN1C[C@@H]2[C@@H]3C(=O)N(C)C(=O)[C@@H]3[C@](C)(C1=O)N2C(=O)c1ccc(C(C)(C)C)cc1	2	0.9%	-3.9	1	0.1	-8
CCN(CC)C(=O)Cn1cc(S(=O)(=O)CC(=O)NCCc2ccc(OC)c(OC)c2)c2ccccc21	-2	0.4%	7.2	-23	-0.1	0
NC(=O)C1CCN(C(=O)c2cc(S(=O)(=O)N3CCOCC3)c(Cl)cc2Cl)CC1	1	-1.4%	-1.1	3	-0.5	12
CCOC(=O)N1CCN(C(=O)CCN2C(=O)COc3ccc(C)cc32)CC1	8	-15%[38.3 µM]	-3.1	2	-0.4	-14
Cc1ccccc1NS(=O)(=O)c1ccc(C(=O)N(C)CC(=O)Nc2ccccc2Br)cc1	-2	0.0%	-4.5	-11	0.0	-6
O=C(NCCCN1CCOCC1)c1ccc(CNS(=O)(=O)c2ccc(Br)cc2)cc1	-6	1.7%	-1.4	21	0.0	3
CSc1ccccc1C(=O)Nc1nc2ccccc2[nH]1	-1	0.6%	-2.3	-14	-0.2	-20

One compound at a time, as listed above. Order of values: Six1-Eya2 blk | PINK1 modulator | D2 agonist | CtBP-E1A inh | TRPML1 agonist | D2 potentiator
CCOC(=O)N1CCN(C(=O)CCN2C(=O)COc3ccc(C)cc32)CC1 is listed with 8 | -15%[38.3 µM] | -3.1 | 2 | -0.4 | -14
Cc1ccccc1NS(=O)(=O)c1ccc(C(=O)N(C)CC(=O)Nc2ccccc2Br)cc1 is listed with -2 | 0.0% | -4.5 | -11 | 0.0 | -6
O=C(NCCCN1CCOCC1)c1ccc(CNS(=O)(=O)c2ccc(Br)cc2)cc1 is listed with -6 | 1.7% | -1.4 | 21 | 0.0 | 3
CSc1ccccc1C(=O)Nc1nc2ccccc2[nH]1 is listed with -1 | 0.6% | -2.3 | -14 | -0.2 | -20
